Assay outcomes as filed in PubChem.
Sa growth inh – S. aureus growth inhibition at 42 and 30 °C, primary screen, LtaS inhibitor project, RN4220, two temperatures; 170,000 compounds, 0.53% hits; OD600, 20 h, 42 °C; stronger effect = lower value; AID 720641, 2013; relative growth, % (test concentration not listed);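 active = growth at 42 °C up to 50% and 20 or more points under that at 30 °C, or under 10% at both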;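 note: 300 nL library stock went into each well; scaled to the means of positive and negative controls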
HCMV NEC inh – inhibitors of HCMV UL50-UL53 interaction, biochemical, HTRF | AID 1918969, 2023 | inhibition, % (concentration not given with the values) | 190,000 compounds, 0.15% hits | HCMV UL50-UL53 nuclear egress complex (human cytomegalovirus) | normalized percent inhibition;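 active = both replicates at 50% or more, plus weaker picks with an unusually low signal ratio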;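 note: stock transfer was 100 nL into about 20 µL; 0% = negative control wells and 100% = wells with untagged competitor protein; inactives centre near -12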
GIV-Gai inh – inhibitors of GIV peptide binding to Galpha-i3, primary screen, biochemical, fluorescence polarization, FITC-GIV GBA peptide, rat Galphai3 | 90 min; stronger effect = lower value; scaled: aluminum fluoride 0%, vehicle 100% | AID 1224905, 2016 | 210,000 compounds, 0.42% hits | percent of control (FP), % (concentration not given with the values) | Guanine nucleotide-binding protein G(i) subunit alpha-3 (Rattus norvegicus), P08753;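 active = replicate mean at 85% of control or lower, very high polarization wells dropped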;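 note: wells of about 15 µL received 100 nL stock; the first replicate is given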
Target sequence (P08753 whole entry, looked up): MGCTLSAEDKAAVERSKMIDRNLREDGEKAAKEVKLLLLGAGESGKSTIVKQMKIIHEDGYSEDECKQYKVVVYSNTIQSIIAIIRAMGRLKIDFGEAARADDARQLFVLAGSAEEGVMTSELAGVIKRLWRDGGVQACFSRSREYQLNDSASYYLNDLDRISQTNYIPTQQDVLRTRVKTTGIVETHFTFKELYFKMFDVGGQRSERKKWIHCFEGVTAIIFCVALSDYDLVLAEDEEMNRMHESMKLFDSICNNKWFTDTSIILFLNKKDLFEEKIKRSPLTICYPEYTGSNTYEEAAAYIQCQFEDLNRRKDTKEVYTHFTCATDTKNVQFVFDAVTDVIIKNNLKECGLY
Sa growth inh second temp – further read-out of Sa growth inh, marked with its call; relative growth, %; measured here: growth at 30 °C;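 optical density after 20 h as mean of two plates; 100% = untreated growth and lower means inhibition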
* marks the source's active call; other numbers are inactive results; nt = no result given; & = joins results of further samples.

SMILES	Sa growth inh	Sa growth inh second temp	HCMV NEC inh	GIV-Gai inh
CCOc1ccc(NC(=O)CNS(=O)(=O)c2ccc(Br)s2)cc1	103	92	-9	103
CC1=CC(C)(C)N2C(=O)C3(Nc4ccccc4O3)c3cc(C)cc1c32 (stereo not given)	nt	nt	-3	98
COc1ccc(CCNC(=O)CCCn2nc(C)c3sc4ccccc4c3c2=O)cc1OC	114	94	-25	104
Cc1ccc2oc(=O)c3cnn(CC(=O)Nc4cc(-c5cccc(F)c5)no4)c3c2c1	nt	nt	-3	99
Cc1ccc(N(CC(=O)NC(c2ccccc2)c2ccccc2)S(=O)(=O)N2CCCC2)cc1	110	80	nt	103
COCCN1C(=O)c2[nH]nc(-c3ccccc3O)c2C1c1ccc(OCc2ccccc2)c(OC)c1 (stereo not given)	65	43	6	101
CCC(C(=O)Nc1cccc2nsnc12)c1ccccc1 (stereo not given)	nt	nt	-69	101
CC1=C(C(=O)Nc2ccc(Cl)cc2)C(c2ccc(C(F)(F)F)cc2)n2nnnc2N1 (stereo not given)	113	69	-38	102
CCOC(=O)CC(C)Nc1cc(NC(C)=O)ccc1OC (stereo not given)	103	90	0	102
N#CCc1ccc(C(=O)c2ccc(Cl)cc2Cl)s1	nt	nt	-18	103
O=C(COC(=O)c1cc2c(s1)CCC2)c1ccc(Br)s1	86	87	-34	nt
Cc1ccccc1NC(=O)c1sc2nc[nH]c(=O)c2c1C	99	96	1	110

Molecules shown so far that contain sulfur, in the order listed:
SMILES	Sa growth inh	Sa growth inh second temp	HCMV NEC inh	GIV-Gai inh
CCOc1ccc(NC(=O)CNS(=O)(=O)c2ccc(Br)s2)cc1	103	92	-9	103
COc1ccc(CCNC(=O)CCCn2nc(C)c3sc4ccccc4c3c2=O)cc1OC	114	94	-25	104
Cc1ccc(N(CC(=O)NC(c2ccccc2)c2ccccc2)S(=O)(=O)N2CCCC2)cc1	110	80	nt	103
CCC(C(=O)Nc1cccc2nsnc12)c1ccccc1 (stereo not given)	nt	nt	-69	101
N#CCc1ccc(C(=O)c2ccc(Cl)cc2Cl)s1	nt	nt	-18	103
O=C(COC(=O)c1cc2c(s1)CCC2)c1ccc(Br)s1	86	87	-34	nt
Cc1ccccc1NC(=O)c1sc2nc[nH]c(=O)c2c1C	99	96	1	110

(continued)
SMILES	Sa growth inh	Sa growth inh second temp	HCMV NEC inh	GIV-Gai inh
CCCCn1c(C)nc2ccccc21	98	70	6	104
CCn1c(N2CCCC(C(=O)Nc3ncn[nH]3)C2)nc2ccccc21 (stereo not given)	91	88	-18	105
CCn1c(=O)c(C2=NS(=O)(=O)c3ccccc3N2)c(O)c2ccccc21	110	82	nt	100&106
Cc1sc(NC(=O)C2CC2)c(C#N)c1C	69	52	-25	102
O=C(NCc1ccccc1)c1ccc(-n2nc(OCc3ccc(Cl)cc3)ccc2=O)cc1	nt	nt	-54	104
O=C(Nc1ccc(Br)cc1)c1cc(S(=O)(=O)N2CCc3ccccc32)ccc1F	133	101	nt	109
O=C(Nc1cc(F)c(Br)cc1F)c1ccc(Cl)cc1	99	96	0	103
CC1=C(C(N)=O)C(c2ccc(F)cc2)n2nc(-c3ccc(N(C)C)cc3)nc2N1 (stereo not given)	111	81	-20	99
CC(=O)N1CCOc2cc(S(=O)(=O)Nc3cccc(C(F)(F)F)c3)c(Cl)cc21	102	94	nt	104
O=C(CSc1ncc(-c2ccccc2)n1-c1ccccc1)NCCN1C(=O)CSC1=O	102	81	-15	nt
CCCc1nnc2c3c4c(sc3ncn12)CCCC4	114	96	-17	100&102
CCC(=O)N1CCCc2cc(S(=O)(=O)N3CCN(C4CCCCC4)CC3)ccc21	98	91	nt	101

The last 2 records of the part before are carried over, then new ones follow:
SMILES	Sa growth inh	Sa growth inh second temp	HCMV NEC inh	GIV-Gai inh
CCCc1nnc2c3c4c(sc3ncn12)CCCC4	114	96	-17	100&102
CCC(=O)N1CCCc2cc(S(=O)(=O)N3CCN(C4CCCCC4)CC3)ccc21	98	91	nt	101
COc1ccc(-n2c(SCC(=O)NC3CC3)nc3ccccc32)cc1	91	90	-8	nt
Cc1cc(C)cc(OCc2cc(=O)n3c(-c4ccccc4)csc3n2)c1	94	82	-59	111
CC1CC1C(=O)OCC(=O)NC(c1ccccc1)c1ccccc1 (stereo not given)	119	94	-13	nt
C[N+](C)(C)[C@H]1C(O)O[C@@H]2C(O)CO[C@@H]21 (stereo not given in full)	130	87	4	nt
Cc1ccc(CNC(=O)Cn2c(=O)n(CCC(C)C)c(=O)c3cccnc32)cc1	nt	nt	4	100
Cc1nc(Cn2c(=O)oc3cc(S(=O)(=O)N(C)Cc4ccccc4)ccc32)no1	nt	nt	-5	111
COc1ccc(/C=C\c2onc(C)c2S(=O)(=O)N2CCC(C(=O)N3CCc4ccccc4C3)CC2)cc1	nt	nt	-30	102
Cc1ccc(NS(=O)(=O)c2cn(C)c(C)n2)cc1	nt	nt	-5	108
COc1ccc(OC(=O)C2CCN(S(=O)(=O)c3cccc4nsnc34)CC2)cc1	113	96	-13	nt
Cc1cc(C)n(NC2=CC(=O)CC(C)(C)C2)c(=O)c1C#N	118	93	2	nt
CC1=C(C(=O)OCCc2ccccc2)C(c2cc3c(cc2Br)OCO3)NC(=O)N1C (stereo not given)	nt	nt	-21	99
O=C(NC1CCc2ccccc21)c1nc[nH]c1C(=O)NCc1ccccn1 (stereo not given)	nt	nt	-9	108
CCOC(=O)c1ccc(NC(=O)CSc2ccc3ccccc3n2)cc1	136	93	nt	110
COc1cccc(-n2ccnc2SCC(=O)Nc2ccc(N3CCN(C)CC3)cc2)c1	87	92	-28	nt
CC(C)C(=O)n1nc(-c2cccnc2)nc1NCc1ccccc1	77	81	-14	101
COc1ccc(Nc2nc(Cl)nc(Nc3cccc([N+](=O)[O-])c3)n2)cc1	nt	nt	-8	102
CCOc1cc(/C=C2\SC(=O)N(C)C2=O)cc(Cl)c1OCC	92	88	-22	101
COc1ccc(Nc2nc(-c3ccc(OC)cc3)c(CCC(=O)O)s2)cc1	nt	nt	-18	94
COc1cc(C(CC(=O)NCCN2CCOCC2)N2Cc3ccccc3C2=O)cc(OC)c1OC (stereo not given)	95	87	-12	101
O=c1[nH]c(Nc2nc3ccccc3o2)nc(O)c1Cc1ccccc1	68	85	-26	nt
Cc1ccc(C)c(CSc2nnc3n(CCCOC(C)C)c(=O)c4cc(Cl)ccc4n23)c1	nt	nt	-6	100
O=C1c2ccc(-c3nc4ccccc4c(=O)o3)cc2C(=O)N1c1ccc2c(c1)OCO2	99	104	-17	94
CC(C)CCNC(=O)c1ccc2nc(CCc3ccccc3)oc2c1	84	95	nt	105
O=c1c2c3c(sc2nnn1Cc1ccccc1)CCCC3	97	88	-72	107
O=C(CSc1nnc2n(Cc3ccco3)c(=O)c3sccc3n12)N1CCc2ccccc2C1	nt	nt	11	96
CC1Sc2ccc(C(F)(F)F)cc2NC1=O (stereo not given)	110	93	-6	100
Cc1cc(=S)[nH]c2ccccc12	98	63	-1	94
N#Cc1cccc(N=Cc2ccc3c(c2)OCO3)c1	88	87	-12	nt
Cc1oc(-c2cccc(Cl)c2)nc1CN1CCN(C(=O)CCC2CCCC2)CC1	nt	nt	2	107
Cc1nc(SCC(=O)N(Cc2ccco2)CC(F)(F)F)c2ccccc2n1	86	84	-22	nt
c1ccc(CSc2nnc(Cc3ccccc3)o2)cc1	99	91	21	109
COc1ccc(N2C3=[N+](CC2(C)O)c2ccccc2CC3)cc1 (stereo not given)	70	94	16	nt
CC(=O)Nc1cc(C(=O)NCc2ccc(F)cc2)ccc1S(=O)(=O)c1ccc(C)cc1	97	90	nt	102
COc1ccc2c(c1)c(NC(C)=O)c1n2CC(C)(C(=O)NC2CCCC2)N(Cc2ccccn2)C1=O (stereo not given)	nt	nt	34	98
CCc1ccc(C(=O)c2cnc3cc4c(cc3c2N2CCCC2)OCCO4)cc1	93	87	-13	105
COc1ccc2[nH]cc(CCNC(=O)C3CCCN(c4nc5ncccc5n5cccc45)C3)c2c1 (stereo not given)	nt	nt	-32	109
Cc1cc(N(C)C)n2nc(-c3ccc(C(C)(C)C)cc3)nc2n1	nt	nt	-14	104
O=C(O)CSCc1nc(-c2ccc(Cl)cc2)no1	80	92	-9	100
COc1ccc(Nc2nc(Cl)nc(NC3CCCC3)n2)cc1	nt	nt	-12	101
CSc1nc2c(Cl)cccc2c2c1c(=O)[nH]n2C	117	92	-1	110
Cc1ccccc1OCC(=O)Nc1cc2c(cc1SC1CCCCC1)n(C)c(=O)n2C	nt	nt	-37	106
Cc1ccc2c(c1)-c1nc3nc(N)[nH]c(=O)c3cc1C(O)O2 (stereo not given)	106	91	-17	nt
COC(=O)c1ccccc1NC(=O)Cn1cnc2sc(C)c(S(=O)(=O)N3CCC(C)CC3)c2c1=O	94	92	-10	100
O=C1C(=O)N(C2CCN(S(=O)(=O)c3ccccc3)CC2)CCN1Cc1ccccc1	91	87	2	99&96
Cc1cc(=O)[nH]c(Nc2ccc(Cl)cc2C)n1	nt	nt	-5	105
O=C(O)c1cnc(N2CCCCC2)nc1	96	88	-15	100
COc1ccc(NC(=O)c2nnc(COCC(=O)NCCc3c(C)noc3C)s2)cc1	nt	nt	-34	104
O=C(c1ccncc1)N(Cc1ccc2c(c1)OCO2)C1CCCC1	110	85	-23	nt
CCOC(=O)C(C(=O)Nc1cccc(C)n1)C1CCCCC1 (stereo not given)	125	86	nt	103
O=C(Cn1c(=O)c2cccn2c2ccc(F)cc21)NCc1cccc(Cl)c1	102	81	-20	115
Cc1ccc2c(=O)cc(C(=O)Nc3sc4c(c3C(=O)NCc3ccco3)CCC4)oc2c1	108	86	-14	109
COc1cc(OC)c(C=Nc2ccccc2)cc1Br	86	86	2	nt
COc1ccc(-c2nn(-c3ccccc3)cc2C(=O)Oc2ccccc2)cc1OC	111	85	nt	101
CCCNC(=O)c1cc2c(Cl)ccc3c2n1CCO3	105	101	-18	103
COc1ccc(CCN2C(=O)CSC2c2ccc3cccc(O)c3n2)cc1OC (stereo not given)	82	77	-57&-72	104&102
O=C(Nc1nnc(S(=O)(=O)N2CCCc3ccccc32)s1)c1ccccc1Br	120	94	-5	107
C/C(=N\NC(=S)NCc1ccccc1)c1ccc(S(=O)(=O)NCc2ccco2)cc1	93	94	20	nt
Cc1cc(C)cc(-n2ccn(Cc3ccc(F)cc3)c(=O)c2=O)c1	119	89	-37	95
COc1ccc(C2=Nc3ccccc3N(Cc3ccc(F)cc3)C(=O)C2)cc1	nt	nt	-39	95
COC(=O)c1cc(NC(=O)COC(=O)C2CCC2)cc(C(=O)OC)c1	95	85	1	nt
Other structures:
SMILES	Sa growth inh	Sa growth inh second temp	HCMV NEC inh	GIV-Gai inh
Cc1cc(C(=O)OCC(=O)Nc2sc3c(c2C#N)CCCC3)c2ccccc2n1	80	92	2	nt
COc1ccc(-c2cnc3cc(-c4ccc(C)cc4)nn3c2N)cc1OC	nt	nt	-26	102
O=C(CCC1CCCC1)N1CCN(C(=O)COc2ccccc2)CC1	97	80	-15	nt
COC(=O)c1ccc(NC(=O)CN2C(=O)CCc3cc(S(=O)(=O)N4CCCCC4)ccc32)cc1	106	87	nt	103
CCCOC(=O)CNc1n[nH]c(=O)[nH]c1=O	100	81	-21	100
Cn1c(C(=O)N2CCN(c3ccccn3)CC2)cc2c(=O)n(C)c3ccccc3c21	101	90	-17	101&98
O=S(=O)(c1ccccc1)N1CCN(S(=O)(=O)c2ccc3ccccc3c2)CC1	106	101	3	104
C=CCNc1nc(C(=O)OCC(=O)N2CCN(c3ccc(OC)cc3)CC2)cs1	78	93	-28	nt
CC1(C)[C@H]2CCC1(CS(N)(=O)=O)C(=O)C2	117	91	2	nt
CCC(C)c1ccc(OCC(=O)Nc2cccc3ccc(C)nc23)cc1 (stereo not given)	95	96	4	109

Five compounds out of the list above, sorted by the number in GIV-Gai inh, high to low.
Compound | Sa growth inh second temp | GIV-Gai inh
CCC(C)c1ccc(OCC(=O)Nc2cccc3ccc(C)nc23)cc1 (stereo not given) | 96 | 109
O=S(=O)(c1ccccc1)N1CCN(S(=O)(=O)c2ccc3ccccc3c2)CC1 | 101 | 104
COC(=O)c1ccc(NC(=O)CN2C(=O)CCc3cc(S(=O)(=O)N4CCCCC4)ccc32)cc1 | 87 | 103
COc1ccc(-c2cnc3cc(-c4ccc(C)cc4)nn3c2N)cc1OC | nt | 102
CCCOC(=O)CNc1n[nH]c(=O)[nH]c1=O | 81 | 100
